# RE007 growth inh: qHTS Assay for Inhibitors of the HIV-1 protein Vpr. S. pombe RE007 Vpr strain, BacTiter-Glo ATP luminescence, 24 h; control for the full effect not named in the record. Potency, µM (highest dose often 92.2 µM), for the others: at the top dose activity change, negative = less growth. 0.21% of 360,000 active. AID 651644, 2012; active = well fitted falling curve with a large enough effect; inconclusive = small, poorly fitted or top-dose-only effect; inactive = no such curve, though single readings can be large or run the other way;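 further: on the % scale 0 is the no-effect control and ±100 the full control effect; nearly all actives have a fitted effect of over 50% in size; the assay follows cell death caused by Vpr and the record does not say whether a fall means rescue or toxicity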
#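 Fission yeast strain RE007, carrying one chromosomally integrated HIV-1 vpr copy, was seeded at OD 0.01 in PMG+AL medium with 23 nL pinned compound. After 24 h at 30 °C and 99% humidity, viability was read by BacTiter-Glo luminescence.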
# Cruzain inh noDet: qHTS Assay for Promiscuous and Specific Inhibitors of Cruzain (without detergent); purified cruzain, Z-FR-AMC fluorescence, no detergent; 2.3% of 200,000 active; Potency, µM, without a hit: max response, negative = inhibition, actives largely listed as inhibitors; Cruzipain (Trypanosoma cruzi), P25779;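 further: plate controls were enzyme without inhibitor for no effect and buffer without enzyme for full effect; nearly all actives have a fitted effect of over 40% in size; top concentration of the series not given in the record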
# Target sequence (P25779 123-467 limits assumed): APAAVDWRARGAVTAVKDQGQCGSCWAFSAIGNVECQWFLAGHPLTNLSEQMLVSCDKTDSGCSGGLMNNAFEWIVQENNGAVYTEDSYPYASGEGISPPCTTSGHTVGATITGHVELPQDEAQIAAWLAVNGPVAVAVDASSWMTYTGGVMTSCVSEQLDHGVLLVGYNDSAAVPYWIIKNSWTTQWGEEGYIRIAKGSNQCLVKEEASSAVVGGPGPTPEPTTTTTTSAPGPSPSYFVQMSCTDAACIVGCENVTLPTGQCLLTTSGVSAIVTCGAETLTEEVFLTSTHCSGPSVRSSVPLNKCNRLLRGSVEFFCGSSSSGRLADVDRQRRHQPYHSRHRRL
#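 Detergent-free condition (0.00005% Triton X-100) in acetate buffer pH 5.5 with DTT. 1.5 nM enzyme and compound were pre-mixed 15 min, then 2 uM Z-FR-AMC substrate added; reaction progress from fluorescence change between first and third reads (60 s).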
# Marburg entry inh: qHTS for inhibitors of binding or entry into cells for Marburg Virus | Marburg virus pseudotyped entry inhibition, cell reporter; control for the full effect not named in the record; about a third of the inactives were read at about 46 µM | Potency, µM (highest dose often 37.8 µM), for inactives: at the top dose activity change, negative = inhibition, hits mostly inhibitors | 1.8% of 300,000 active | AID 540276, 2011; active = well fitted inhibition curve with a large enough effect; inconclusive = small, poorly fitted or top-dose-only effect, or effect the other way; inactive = flat fitted curve, though single readings scatter; tested in HEK293 cells; about a fifth of its hits are not listed in these tables; further: on the % scale 0 is the no-effect control and ±100 the full control effect; luciferase read-out
# LASV entry inh: qHTS for Inhibitors of binding or entry into cells for Lassa Virus. Potency, µM (doses to about 37.9 µM), inactives show top-dose activity change, negative = inhibition, usual class: inhibitors. 1.2% of 300,000 active. Lassa virus pseudotype entry inhibition, cell reporter; control for the full effect not named in the record; active means well fitted inhibition curve with a large enough effect; inconclusive means small, poorly fitted or top-dose-only effect, or effect the other way; inactive means flat fitted curve, though single readings scatter; tested in HEK293 cells; further: on the % scale 0 is the no-effect control and ±100 the full control effect; nearly all actives have a fitted effect of over 50% in size; luciferase read-out
# StopGo reporter: High Throughput Screening for Foot and Mouth Disease Virus Antivirals; human cells with a luciferase reporter of 2A StopGo recoding; control for the full effect not named in the record; Potency, µM (top dose mostly 57.9 µM), without a hit: at the highest dose signal change, negative = less light; 1.2% of 410,000 active; AID 1159524, 2015; active = well fitted falling curve with a large enough effect; inconclusive = small, poorly fitted or top-dose-only effect; inactive = no such curve, though single readings can be large or run the other way; tested in HEK293T cells; further: on the % scale 0 is the no-effect control and ±100 the full control effect; nearly all actives have a fitted effect of over 45% in size; luciferase light after 4 h
# SARS PLP yeast: qHTS of Yeast-based Assay for SARS-CoV PLP; 0.19% of 330,000 active; AID 485353, 2010; S. cerevisiae expressing SARS-CoV PLpro, growth rescue; control for the full effect not named in the record; Potency, µM (highest dose often 32.9 µM), for the others: top-dose activity, positive = growth rescue; active means well fitted rising curve with a large enough effect; inconclusive means small, poorly fitted or top-dose-only effect; inactive means no such curve, though single readings can be large or run the other way; further: 0% is about no effect; nearly all actives have a fitted effect of over 55% in size; growth read by luminescence after 48 h
# NS1 function inh: qHTS Assay for Inhibitors of Influenza NS1 Protein Function; S. cerevisiae slowed by influenza A NS1, growth recovery by OD600; Potency, µM (top dose mostly 46.1 µM), for the others: at the highest dose activity, positive = more growth; 0.4% of 270,000 active; AID 2326, 2010; active means well fitted rising curve with a large enough effect; inconclusive means small, poorly fitted or top-dose-only effect; inactive means no such curve, though single readings can be large or run the other way; further: nearly all actives have a fitted effect of over 50% in size
#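 Compounds were scored for reversing the slow growth caused by influenza A NS1 in S. cerevisiae, measured by optical density at 600 nm. Assay medium contained 2% galactose at pH 6.0; NS1-free yeast of the same strain were the positive control.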
# Cruzain Triton: qHTS Assay for Promiscuous and Specific Inhibitors of Cruzain (with detergent); Cruzipain (Trypanosoma cruzi), P25779; purified cruzain, Z-FR-AMC fluorescence, 0.01% Triton; Potency, µM, for inactives: max response, negative = inhibition, usual class: inhibitors; 0.43% of 200,000 active;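 further: plate controls were neutral wells for no effect and buffer without enzyme for full effect; nearly all actives have a fitted effect of over 40% in size; top concentration of the series not given in the record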
#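 Cruzain (1.5 nM) preincubated 15 min at RT with compound in 100 mM sodium acetate pH 5.5, 5 mM DTT, 0.01% Triton X-100. Reaction started with 2 uM Z-FR-AMC; AMC fluorescence (ex 360/em 450 nm) change over 60 s gave rate.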
# * hit, by the source's call; ? = inconclusive; . = no result given; & = joins results of further samples; [ ] = remark or other dose. Unless noted, the call rests on the fitted dose curve; in most records, active means well fitted curve in the direction sought with a large enough effect; inconclusive means small, poorly fitted or top-dose-only effect, or another doubt; inactive means no such curve, though single readings can be large; an effect the other way counts as inactive or inconclusive. Potency means the concentration at half of the fitted maximal effect. Hits appear at their usual frequency. About 4.7% of those tested had a hit in this group.
SMILES,RE007 growth inh,Cruzain inh noDet,Marburg entry inh,LASV entry inh,StopGo reporter,SARS PLP yeast,NS1 function inh,Cruzain Triton
COc1ccc(-c2noc(-c3ccc(N4CCCC4)c([N+](=O)[O-])c3)n2)cc1,.,-7%,10%[46.1 µM],16%[46.1 µM],5%,.,.,-11%
CC(C)CN1CCC(=O)N([C@H](CN=[N+]=[N-])Cc2ccccc2)CC1,6%,.,.,.,-17%,-10%,10%,.
Cc1ccc(CN2CC(C(=O)NNC(=O)c3ccc(F)cc3)CC2=O)cc1 (stereo not given),12%,.,19%,-14%,-13%,-9%,.,.
O=C(/C=C/c1cn(-c2ccccc2)nc1-c1cccs1)NCCN1CCOCC1,11%,.,.,.,4%,3%,-7%,.
O=C(NCCc1c[nH]c2ccccc12)C1CCC(=O)N(CCc2cccc(F)c2)C1 (stereo not given),-5%,.,0%[46.1 µM],-4%[46.1 µM],-5%,-2%,0%,.
Cc1ccc(N2CCN(C(=O)Cc3c(C(=O)O)c(C)cn3C)CC2)c(C)c1,.,16%,.,?,-17%,.,.,1.7%
COC(=O)C(CC(=O)CNC(=O)c1ccccc1)NC(=O)c1ccccc1 (stereo not given),9%,.,5%[46.1 µM],0%[46.1 µM],2%,.,.,.
COc1ccc(Cl)cc1NC(=O)N1CCN(S(C)(=O)=O)CC1,18%,-8%,11%,4%,1%,.,1%,1.6%
Cc1nc2c(c(C)nn2-c2ccccc2)c(C)c1CCC(=O)NCCc1ccccc1,.,11%,?,18%[46.1 µM],-16%,.,.,-4.7%
CCN(CC(=O)NCc1cccs1)C(=O)c1cccc(S(=O)(=O)Nc2ccc(C)cc2)c1,4%,.,-21%,?,43%[activator],-7%,.,.
Cc1ccc(-n2c(=O)c3c4c(sc3n(CC(=O)c3ccc(Cl)cc3)c2=O)CCC4)cc1C,.,1%,3%[46.1 µM],1%[46.1 µM],-4%,.,.,-0.7%
CC1(O)CC(c2ccc(Cl)cc2)=NN1C(=O)c1ccc(Cl)cc1 (stereo not given),1%,.,.,.,-14%,-6%,-53%,.
COc1cccc(NC(=O)C(Cc2ccccc2)n2cccc2)c1 (stereo not given),4%,.,-23%,?,-13%,-5%,-8%,.
CCOc1ccc(OCCOCCn2ccnc2)cc1,13%,-6%,-1%,6%,12%,0%,3%,4.6%
CC(=O)c1sc(-c2c(C)nc3sccn23)nc1C1CCCC1,.,0%,5%,.,.,-3%,?,5.6%
N=C1SC(c2ccccc2)C(=O)N1c1ncc(Cc2ccccc2Cl)s1 (stereo not given),27%,?,-12%,2%,-14%,5%,7%,-0.7%
c1ccc2c(c1)nc1n2CC2CON(C3CCCCC3)C12 (stereo not given),-5%,.,.,.,11%,0%,15%,.
CC1(C)C2CCC1(C)C(NC(=O)CCN1CCCCC1)C2 (stereo not given),9%,-15%,-19%,-10%,-2%,2%,3%,5.8%
CCC(=O)N1CCc2cc(Br)cc(S(=O)(=O)N3CCCC(C(=O)O)C3)c21 (stereo not given),-8%,.,.,.,8%,4%,5%,.
O=C(/C=C/c1ccco1)Nc1ccc(Cl)c(S(=O)(=O)N2CCOCC2)c1,5%,.,.,.,22µM*,0%,9%,.
COc1cccc(CNC(=O)C2(c3cccs3)CCOCC2)c1,.,-6%,.,-8%[46.1 µM],0%,.,.,0.2%
CC(C)C1OC2(C)OC(=N)C1(C#N)C(C#N)(C#N)C2c1ccccc1 (stereo not given),20%,1%,4%,-24%,-30%,11%,15%,-3.3%
CN1CCN(c2ccc([N+](=O)[O-])c(Sc3nncn3C)c2)CC1,-4%,.,11%[46.1 µM],16%,1%,0%,5%,.
Cc1nc(N2N=C3/C(=C/c4ccc(F)cc4)CCCC3C2c2ccc(F)cc2)sc1C(=O)N(C)C (stereo not given),-5%,?,?,?,-27%,-23%,18%,-4.2%
O=C(c1ccc(-n2cnnn2)cc1)N1CCCCC1,4%,-7%,-2%,-1%,17%,26%,8%,0.2%
COc1ccccc1NC(=O)Cn1c(=O)sc2ccccc21,4%,-7%,18%,-3%,-10%,9%,5%,3.3%
Cc1cc(C)c2c(n1)sc1c(=O)n(Cc3ccc(F)cc3)cnc12,19%,.,.,.,-7%,2%,-1%,.
CC(=O)Nc1sc(N/N=C/c2ccc(O)cc2)nc1-c1ccc(C)cc1,20%,.,.,.,44%[activator],2%,5%,.
CCN(CC)c1ccc(C=Nc2ccc(C)cc2)c(O)c1,-16%,-17%,11%[46.1 µM],0%,45%[activator],-6%,1%,-8.1%
Cc1ccc(S(=O)(=O)N/N=C\c2cccnc2)cc1,15%,-1%,4%,3%,.,3%,25%,3.2%
CC(=O)Nc1cc([As](=O)(O)O)ccc1O,-5%,-14%&-2%,1%&1%&1%&1%&1%,-2%,-15%&-3%,0%&0%,-2%&-2%,0.9%&10%
Cc1ccc(C)c(N2CCN(C(=O)c3ccc(N4CCOCC4)c([N+](=O)[O-])c3)CC2)c1,16%,.,?,?,-13%,-37%,-17%,.
S=C(NCc1ccccc1)NNc1nc2ccccc2[nH]1,-6%,.,?,?,-4%,3%,.,.
CCSc1nc(O)c(Cc2ccccc2)c(=O)[nH]1,-24%,2%,?,4%,11%,-3%,3%,2.4%
O=C1CCc2cc(S(=O)(=O)NCc3ccc(F)cc3)cc3c2N1CCC3,23%,.,-5%[46.1 µM],?,8%,2%,.,.
COCCCNC(=O)c1c(-c2ccccc2)noc1C,24%,-7%,16%,12%,-21%,0%,-3%,6.0%
CCCCN(C(=S)Nc1ccc(F)cc1)c1c(N)n(CCC)c(=O)[nH]c1=O,-15%,.,-14%[46.1 µM],.,0%,-3%,.,.
COc1ccc(S(=O)(=O)Nc2c(C(=O)O)[nH]c3ccccc23)c(OC)c1,-3%,-9%,9%,7%,44%[activator],3%,-5%,0.1%
CC(C)(C)c1ccc(C(=O)Nc2cccc(-n3cnnn3)c2)cc1,11%,.,.,.,10%,-10%,-82%,.
CCCCN(C(=O)c1ccc(C)c(S(=O)(=O)N2CCOCC2)c1)c1c(N)n(CCCC)c(=O)[nH]c1=O,-2%,.,-1%,-6%,-11%,0%,.,.
Cc1cc(C)c(S(=O)(=O)N2CCN(S(=O)(=O)N3CCC(C)CC3)CC2)c(C)c1,4%,.,0%,-1%,-8%,4%,-25%,.
Cc1ccc(C(=O)Nc2ccc(C(=O)O)cc2NC(=O)c2ccc(C)cc2)cc1,-9%,.,.,.,?,0%,19%,.
CC(OC(=O)c1nc(Cl)ccc1Cl)C(=O)Nc1ccc2c(c1)OCCO2 (stereo not given),1%,.,11%[46.1 µM],6%,-4%,7%,.,.
COc1cccc(C(=O)CN(C(=O)c2ccc(Cl)c(Cl)c2)N2C(=O)C3CCCCC3C2=O)c1 (stereo not given),-6%,-2%,19%,3%,6%,-1%,-7%,-1.5%
O=C(C1CCN(S(=O)(=O)c2ccc(F)cc2)CC1)N1CC=C(c2ccccc2)CC1,-10%,?,-15%,?,-22%,-2%,-13%,-4.2%
Cc1ccc(-n2nc3c(N4CCC(C(=O)NC5CCC(C)CC5)CC4)nnc(C)c3c2C)cc1 (stereo not given),.,16%,.,-4%[46.1 µM],-9%,.,.,-2.9%
CN(C)CC(CCC(CN(C)C)C(=O)c1ccccc1)C(=O)c1ccccc1 (stereo not given),1%,.,13µM*,-31%,28µM*,-3%,-35%,.
CN(C)C(CNc1ccc(S(C)(=O)=O)cc1[N+](=O)[O-])c1ccccc1 (stereo not given),-9%,.,?,?,31%[activator],8%,4%,.
COCCCNC(=O)CCCn1c(=O)c2ccccc2n(CC(=O)Nc2ccc(C)cc2Cl)c1=O,.,-20%,20%[46.1 µM],12%[46.1 µM],15%,.,.,0.7%
CCO[C@H]1OC(C(=O)N2CCCCCCC2)=C[C@@H](C)[C@@H]1CCCO,-5%,.,.,.,-8%,-1%,2%,.
COc1ccc(CC(=O)Nc2sc(Cc3ccccc3)c(C)c2C(N)=O)cc1,7%,-11%,?,?,-19%,3%,4%,3.9%
Cc1cccc(C(=O)Nc2ccccc2OCc2cc(=O)n3c(C)csc3n2)c1,.,4%,9%[46.1 µM],?,-15%,.,.,-0.5%
Cc1ccc(S(=O)(=O)N2CCCCC2)cc1NC(=O)COC(=O)C1CC2C=CC1C2 (stereo not given),9%,18%,11%,?,?,12%,-5%,-5.5%
Cc1cccc(C)c1NC(=O)CC(NCc1ccco1)C(=O)O (stereo not given),-2%,1%,-9%,?,-1%,2%,5%,1.4%
COc1ccc(CNC(=O)c2ccc(-c3nc(CSc4ccccc4)c(C)o3)cc2)cc1,.,4%,.,6%[46.1 µM],-7%,.,.,-1.9%
O=C(Nc1ccccc1)Nc1csc2ccccc12,5%,.,-1%[46.1 µM],-10%,70%[activator],-4%,-49%,.
CCN(CC)c1ccc(NC(=O)COC(=O)/C=C/c2nc3ccccc3s2)cc1,-16%,?,?,11%,18%,14%,0%,-6.1%
CN(C)C=C1C(=O)c2ccccc2C1=O,3%,-11%,4%,-9%,7%,-9%,5%[9.22 µM],-0.4%
CCCSc1nnc2nc(C)cc(C)n12,3%,4%,.,.,-7%,10%,-12%,4.6%
CCN1C(=O)/C(=C2/C(=O)N3c4c(cc(OC(C)=O)cc42)C(C)=CC3(C)C)SC1=S,-4%,?,-32%,28%,?,16%,13%,-4.7%
Cc1cc(C)nc(NS(=O)(=O)c2ccc(N/C=C/C(=O)c3ccc(Cl)cc3)cc2)n1,65%,-18%,0%,2%,51%[activator],12%,-11%,-5.0%
O=C(O)c1ccc2c(c1)N(Cc1ccccc1F)C(=O)c1ccccc1S2=O (stereo not given),11%,-1%,-3%,.,-10%,5%,22%,0.2%

# High-throughput results as filed in PubChem.
